KOR beta-arrestin – kappa opioid receptor activators – cell-based, luminescence, uHTS, primary screen (AID 1777). KOR beta-arrestin recruitment, luminescence; higher % means a stronger effect. one-dose activation, % at 10 µM; EC50 in µM for titrated hits. hit rate 0.02% among 280,000; in the data active = activation above about 50%, passing the limit was not always enough; note: a part of the inactive calls stands beside numbers as strong as those of hits
SV40 large T antigen – TAg ATPase/helicase activity blockers – biochemical (AID 1903); SV40 large T antigen ATPase/helicase inhibition assay; higher % means a stronger effect; one-dose inhibition, % at 20 µM; IC50 in µM for titrated hits; hit rate 0.39% among 310,000; in the data active = a potency from the dose series; note: strong numbers were not always called active
GPR55 antagonists – inhibition of LPI-stimulated GPR55 beta-arrestin translocation – imaging, U2OS, beta-arrestin-GFP, LPI agonist, primary screen (AID 2013) | U2OS GPR55 beta-arrestin-GFP translocation imaging, LPI antagonism; higher % means a stronger effect | inhibition, % at 10 µM, or IC50 in µM where a hit was titrated | hit rate 0.13% among 290,000;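 active = spots per cell inhibited over 60%, with over 100 cells counted and total cytoplasm intensity under 500,000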;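 note: U2OS cells stably carrying GPR55 and arrestin-GFP stimulated by 5 µM LPI near EC80; imaged beta-arrestin-GFP aggregate spots per cell after agonist stimulation; plate controls were LPI-stimulated DMSO wells for no effect and DMSO wells without LPI for full effect; some results filed as inactive read as strong as hits; confirmed hits need IC50 under 10 µM and bright autofluorescent wells are also inconclusive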
HIV fusion peptide – cell-free HIV fusion peptide-binding blockers – biochemical, uHTS, fluorescence dequenching, primary screen (AID 1986); cell-free peptide binding, fluorescence dequenching, 30 min; higher % means a stronger effect; inhibition, % at 20 µM; hits with a dose series show IC50 in µM; hit rate 0.3% among 290,000; in the data active = inhibition mostly above about 52%, no sharp cut-off; inactive = mostly below about 76%; note: some results filed as inactive read as strong as hits
MgcRacGAP inhibition – MgcRacGAP GTPase-activating activity inhibitors, confirmation, biochemical, ADP Hunter fluorescence | MgcRacGAP-stimulated Rac1 GTP hydrolysis, ADP Hunter fluorescence; higher % means a stronger effect; GST-tagged Rac1 F28L mutant substrate | one-dose inhibition, % at 30 µM; IC50 in µM for titrated hits | hit rate 0.6% among 340,000 | AID 624330;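 active = first-screen hits whose inhibition reached a set limit at any dose in the follow-up dose series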;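 note: fluorescence reports GDP produced by GAP-driven GTP hydrolysis; strong numbers were not always called active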
GPR55 activation – GPR55 agonists via beta-arrestin recruitment, primary screen, imaging, U2OS cells, beta-arrestin-GFP redistribution (AID 1961); hit rate 0.048% among 290,000; one-dose activation, % at 10 µM; EC50 in µM for titrated hits; U2OS GPR55 beta-arrestin-GFP redistribution imaging; higher % means a stronger effect;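 active = activation above 40% with more than 50 cells counted in the well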;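 note: U2OS osteosarcoma cells stably expressing GPR55 and beta-arrestin-GFP; plate controls were DMSO negative control for no effect and LPI positive control for full effect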
* = called active by the depositor; · = not tested or not shown; & = joins results of further samples. These rows are one share of the data; rates above refer to the full screens.

nr	Molecule	KOR beta-arrestin	SV40 large T antigen	GPR55 antagonists	HIV fusion peptide	MgcRacGAP inhibition	GPR55 activation
1	CCOc1cc(/C=N/n2cnnc2)ccc1OC(=O)c1cccc([N+](=O)[O-])c1	-1.3%	17.4%	10.8%	-1.7%	23.4%	-2.3%
2	O=C(NCc1cccnc1)C1CC2c3ccccc3C1c1ccccc12 (configuration not stated)	-0.5%	3.0%	14.1%	7.5%	0.8%	0.9%
3	COc1ccc(C)cc1NC1=C(Cl)C(=O)N(C2CCCCC2)C1=O	-2.9%	2.8%	27.4%	-1.8%	7.2%	0.3%
4	COc1cccc(NC(=O)c2oc3ccccc3c2NC(C)=O)c1	8.9%	12.2%	-14.6%	-2.7%	10.2%	-2.3%
5	CC(C)CC(=O)N(c1ccc(F)cc1)C1C=CS(=O)(=O)C1 (configuration not stated)	3.0%	6.5%	5.4%	-2.3%	2.9%	-0.1%
6	Cc1cc(/C=C(/C#N)C(=O)Nc2ccccc2)c(C)n1-c1cccnc1	4.8%	2.6%	-0.6%	-0.2%	13.0%	-0.1%
7	Cc1ccc(C(CC(=O)c2ccco2)SCCO)cc1 (configuration not stated)	7.0%	12.6%	9.9%	-0.6%	4.5%	-0.1%
8	CCOC(=O)C(C(=O)N(C)C)c1ncc(C(F)(F)F)cc1Cl (configuration not stated)	3.1%	3.1%	3.0%	0.8%	0.8%	0.0%
9	CC(=O)Nc1ccc(-c2ccccc2)s1	3.4%	4.7%	-1.5%	-0.5%	5.4%	-0.1%
10	O=[N+]([O-])c1cc2c(cc1/C=N/Nc1nc(Nc3ccccc3)nc(N3CCCCC3)n1)OCO2	-0.5%	8.7%	13.7%	1.9%	-2.2%	0.2%
11	NC(=O)c1ccc(NC(=O)C2CCCO2)cc1 (configuration not stated)	1.7%	16.0%	9.5%	2.5%	9.2%	-0.1%
12	CCOC(=O)CNC(=O)CSc1nnc(-c2ccncc2)n1-c1ccc(Cl)cc1	-0.6%	-0.4%	9.0%	1.3%	6.8%	-0.1%
13	Cc1ccc(C(=O)COc2ccccc2C(=O)Nc2ccccc2)cc1	9.6%	11.5%	-8.0%	4.9%	1.7%	-0.1%
14	CC(C)(C)c1nc(SCC(=O)Nc2ccc3c(c2)OCCO3)c2ccccc2n1	-3.6%	14.0%	8.8%	0.5%	5.4%	0.0%
15	CCSc1nnc(-c2sc3nnc(-c4ccccc4)c(-c4ccccc4)c3c2N)o1	6.3%	15.5%	2.44µM*	98.4%*	8.9%	4.6%
16	Fc1cccc(CN2CCCCCCC2)c1	-2.3%	14.9%	6.1%	-2.9%	10.3%	-0.2%
17	O=C1CC(N2CCN(c3nc4ccccc4s3)CC2)C(=O)N1c1cccc(F)c1 (configuration not stated)	5.8%	8.4%	5.6%	-1.8%	11.2%	-0.2%
18	Cc1ccc(-c2cc(N)n(-c3ccc(C)cc3)n2)cc1	-1.6%	17.5%	25.5%	0.8%	10.2%	0.0%
19	CCc1cc(C(c2ccc(F)cc2)N2CCOCC2)c(NC(=O)c2ccccc2)s1 (configuration not stated)	-0.2%	10.1%	11.3%	2.0%	-4.0%	-0.1%
20	CC12CCC(C(=O)N(CC(O)CN3CCCCC3)C1=O)C2(C)C (configuration not stated)	-4.8%	6.9%	5.0%	-0.7%	2.1%	-0.2%
21	Cc1sc2c(c1C)CN(C(C)(C)C)CN2C(=O)c1ccccc1	9.6%	17.0%	-2.2%	5.7%	11.6%	0.3%
22	COc1cccc(C(=O)NC2CC3CCCC(C2)N3CC(=O)Nc2ccccc2)c1 (configuration not stated)	2.5%	34.0%	-1.3%	-4.7%	9.0%	0.2%
23	CCSc1cc(N2CCCC2)nc(-c2ccc(F)cc2)n1	4.7%	4.1%	2.0%	-0.7%	11.1%	0.0%
24	Cn1cc(C(=O)c2ccc(Cl)cc2)cc1-c1nc2ccccc2n1C	2.9%	1.8%	17.2%	0.6%	8.2%	0.4%
25	CC(C)CNC(=O)C(=O)N/N=C/c1cccs1	1.4%	4.6%	3.6%	-2.4%	7.0%	0.2%

Other compounds
nr	Molecule	KOR beta-arrestin	SV40 large T antigen	GPR55 antagonists	HIV fusion peptide	MgcRacGAP inhibition	GPR55 activation
26	CCOc1ccccc1OCC(=O)Nc1ccc(Cl)cc1Cl	-2.3%	-4.8%	10.3%	-1.2%	5.7%	0.3%
27	COc1ccc(C2C(C(=O)N3CCOCC3)=C(C)NC3=C2C(=O)CC(C)(C)C3)c(OC)c1 (configuration not stated)	7.8%	6.7%	7.1%	-2.5%	11.5%	-0.1%
28	CCOCCCNC(=O)CCS(=O)(=O)Cc1ccc(C)cc1	4.3%	5.2%	9.6%	-0.8%	5.7%	-0.1%
29	CCC(=O)Nc1ccc(C(=O)Nc2ccc3c(c2)OCO3)cc1	-1.7%	-0.6%	0.7%	1.1%	10.7%	0.0%
30	Cc1ccnc(NS(=O)(=O)c2ccc(NC(=O)C3CCCNC3=O)cc2)n1 (configuration not stated)	-0.6%	14.4%	8.1%	-0.4%	2.8%	-0.1%
31	CCn1c(CC(=O)Nc2ccc(C)cc2)nnc1SCC(=O)Nc1nc(C)cs1	-0.1%	9.2%	5.8%	0.9%	1.1%	0.0%
32	COc1ccccc1NC(=O)Cc1csc(NC(=S)Nc2ccc(C)cc2)n1	-3.2%	-1.2%	12.7%	-1.2%	7.1%	0.3%
33	COc1ccc(NC(=O)COC(=O)c2ccc(OCc3c(C)noc3C)cc2)cc1OC	3.5%	7.4%	-8.1%	-1.8%	5.8%	0.1%
34	O=C(NCc1ccccc1C(F)(F)F)C1CC(c2ccccc2[N+](=O)[O-])=NO1 (configuration not stated)	0.8%	21.8%&3.9%	1.8%	-2.7%	11.0%	-0.1%
35	COc1ccc(/C(O)=C2/C(=O)C(=O)N(CC3CCCO3)C2c2cccc(O)c2)cc1 (configuration not stated)	-1.4%	3.1%	-1.9%	1.7%	8.6%	-0.1%
36	COc1ccc(C(=O)NCS(=O)(=O)c2ccc(C)cc2)cc1	5.4%	31.1%	7.8%	0.1%	1.6%	-0.2%
37	NC(=O)C1CCN(C(=O)CCc2nc3ccccc3c(=O)[nH]2)CC1	3.6%	16.8%	2.6%	-1.1%	3.3%	-0.1%
38	Cc1ccc(Cn2nc(-c3ccccc3)nc2-c2ccccc2)cc1	-0.2%	5.0%	9.6%	-1.1%	6.3%	-0.1%
39	CC1CCc2cccc3c2N1c1cc(C#N)c(C#N)cc1O3 (configuration not stated)	0.8%	6.9%	5.3%	99.1%	9.5%	-0.1%
40	COc1ccc(-c2cc(=O)oc3cc4occ(C)c4cc23)cc1	4.0%	-1.0%	3.5%	9.5%	1.9%	-0.1%
41	Cc1cc(NC(=O)CSc2nc3sc(C)c(C)c3c(=O)n2C2CCCC2)no1	-3.4%	-0.9%	2.6%	-0.9%	10.3%	0.3%
42	CC(=O)Nc1ccccc1C(=O)C(=O)Nc1ccc(F)cc1	1.0%	-0.3%	13.5%	1.1%	10.8%	-0.1%
43	Cc1c(C(=O)NC(C)CCc2ccccc2)cccc1[N+](=O)[O-] (configuration not stated)	-0.2%	-10.4%	6.4%	-3.1%	10.7%	-0.1%
44	COc1ccc(C(=O)NCc2ccc(-c3nc4ccccc4s3)cc2)cc1	-1.9%	-1.8%	8.3%	3.2%	3.5%	-0.1%
45	COc1ccccc1-c1nnc(SCc2nc3ccccc3s2)n1C	-3.1%	5.3%	-2.1%	-1.2%	5.1%	-0.1%
46	CCOc1ccc(NC(=O)N(CCN2CCOCC2)Cc2ccc3c(c2)CCCN3CC)cc1	10.4%	16.9%	-1.1%	-0.4%	18.2%	-0.1%
47	CN(C(=O)CSc1ncccc1C(=O)O)c1ccccc1	3.0%	15.9%	4.4%	0.9%	4.8%	-0.1%
48	CCCCN1C(=O)/C(=c2\sc3nc(=O)c(-c4ccccc4)nn3c2=O)c2ccccc21	0.6%	2.4%	20.4%	3.9%	20.7%	-2.0%
49	Cc1cccc(N(C(=O)Cc2cccs2)C(C(=O)NC2CCCC2)c2ccsc2)c1 (configuration not stated)	-1.7%	8.7%	-10.3%	-0.5%	4.6%	0.2%
50	O=C(Cc1ccc(F)cc1)N(c1ccc(F)cc1)C1C=CS(=O)(=O)C1 (configuration not stated)	-2.9%	-1.3%	10.5%	1.0%	4.8%	-0.1%

Complete entries as entered above. Screens in order: KOR beta-arrestin | SV40 large T antigen | GPR55 antagonists | HIV fusion peptide | MgcRacGAP inhibition | GPR55 activation
Listed for COc1ccccc1-c1nnc(SCc2nc3ccccc3s2)n1C : -3.1% | 5.3% | -2.1% | -1.2% | 5.1% | -0.1%
Listed for CC1CCc2cccc3c2N1c1cc(C#N)c(C#N)cc1O3 (configuration not stated) : 0.8% | 6.9% | 5.3% | 99.1% | 9.5% | -0.1%
Listed for Cc1c(C(=O)NC(C)CCc2ccccc2)cccc1[N+](=O)[O-] (configuration not stated) : -0.2% | -10.4% | 6.4% | -3.1% | 10.7% | -0.1%
Listed for Cc1cccc(N(C(=O)Cc2cccs2)C(C(=O)NC2CCCC2)c2ccsc2)c1 (configuration not stated) : -1.7% | 8.7% | -10.3% | -0.5% | 4.6% | 0.2%
Listed for COc1ccc(NC(=O)COC(=O)c2ccc(OCc3c(C)noc3C)cc2)cc1OC : 3.5% | 7.4% | -8.1% | -1.8% | 5.8% | 0.1%

Results in SV40 large T antigen and HIV fusion peptide (4 entries from above):
cpd	SMILES	SV40 large T antigen	HIV fusion peptide
34	O=C(NCc1ccccc1C(F)(F)F)C1CC(c2ccccc2[N+](=O)[O-])=NO1 (configuration not stated)	21.8%&3.9%	-2.7%
35	COc1ccc(/C(O)=C2/C(=O)C(=O)N(CC3CCCO3)C2c2cccc(O)c2)cc1 (configuration not stated)	3.1%	1.7%
36	COc1ccc(C(=O)NCS(=O)(=O)c2ccc(C)cc2)cc1	31.1%	0.1%
37	NC(=O)C1CCN(C(=O)CCc2nc3ccccc3c(=O)[nH]2)CC1	16.8%	-1.1%

Additional entries:
nr	Molecule	KOR beta-arrestin	SV40 large T antigen	GPR55 antagonists	HIV fusion peptide	MgcRacGAP inhibition	GPR55 activation
51	N#Cc1nc(Cc2cccc3ccccc23)oc1N1CCN(c2ccccc2)CC1	0.9%	11.7%	12.5%	-0.3%	6.2%	-0.1%
52	COc1ccc(CN(C(=O)c2cccs2)C(C(=O)NC2CCCCC2)c2ccc3ncccc3c2)cc1 (configuration not stated)	4.0%	6.9%	-10.0%	1.3%	1.6%	0.5%
53	COCCCn1c(SCc2nnc(-c3ccccc3)o2)nc2sc3c(c2c1=O)CCC3	0.5%	11.7%	9.4%	5.4%	9.2%	-0.1%
54	Cc1ccccc1CSCCNC(=O)CSCc1ccc([N+](=O)[O-])cc1	-1.3%	2.4%	22.2%	-1.9%	1.5%	0.0%
55	O=c1nc(-c2ccccc2)n(-c2ccccc2)c2ncccc12	0.7%	-1.6%	3.7%	1.5%	9.5%	0.2%
56	COc1ccc(Oc2nc(SC)nc3ccsc23)cc1	0.2%	3.1%	-3.6%	0.7%	11.0%	0.8%
57	CCC(C)C(=O)Nc1nc(-c2ccc3c(c2)NC(=O)CO3)cs1 (configuration not stated)	5.8%	8.1%	2.5%	0.6%	4.1%	-0.2%
58	Cc1nc(NCC2CCCO2)[nH]c(=O)c1CCC(C)C (configuration not stated)	2.5%	1.8%	0.1%	0.4%	7.6%	-0.1%
59	Cn1c(-c2ccc[nH]c2=O)nc2cc(Cl)ccc21	-1.4%	4.0%	-5.7%	-4.0%	11.0%	-0.2%
60	CSc1nc(Cl)c(C#N)c(-c2ccc(C)cc2)n1	-3.3%	4.1%	68.5%*	8.8%	7.1%	2.5%
61	O=C(c1ccco1)N1CCN(S(=O)(=O)c2ccc3[nH]c(=O)oc3c2)CC1	-1.3%	-1.8%	8.0%	5.0%	7.9%	-0.1%
62	O=S(=O)(c1ccccc1)n1ccc2cccnc21	-1.6%	2.9%	·	1.0%	19.0%	-0.1%
